HNF4A DNA FP: change in binding of human HNF4A to DNA, primary screen, biochemical, fluorescence polarization, FITC-DNA. 360,000 tested, 0.3% active. activity change, % at 10 µM. 1 h. Hepatocyte nuclear factor 4-alpha (Homo sapiens), P41235; in the data active = activity change above about 30%, passing the limit was not always enough;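 note: controls were the assay level and a saturating level of protein; the project sought stronger binding though the title names inhibitors; some compounds called inactive have numbers as strong as hits; positive values seem to mean higher polarization but the record does not say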
B2AR ag: beta2AR agonists driving receptor internalization, primary screen, cell-based, FAP fluorogen, flow cytometry. Beta-2 adrenergic receptor (Homo sapiens), P07550. 340,000 tested, 0.43% active. AID 504454, 2011. Am2.2-beta2AR cells; reference of the scale not given here. response, % (concentration not given with the values);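 active = response above a set limit, near 3 SD of response in nonfluorescent compounds, cut at about 42% in these data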;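 note: stock transfer was 100 nL into about 11 µL; a reference agonist was the positive control; negative values mostly stem from fluorescent compounds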
Bfl-1 A1 inh: caspase 3/7 activation in MEF A1-2A-BIM cells, primary screen, A1 inhibitor project, cell-based, luminescence, HTS; Caspase-Glo 3/7 luminescence, 3 h; percent of clofoctol response, vehicle zero; caspase activation, % (no concentration beside the values); 330,000 tested, 0.066% active; AID 2462, 2010;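 active = over half of replicate activation scores above 10%, or exactly half above 10 with the replicate mean above 10; inconclusive = replicate mean below 10 yet half the replicates above 10; inactive = over half of replicates below 10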;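 note: wells of about 30 µL received 50 nL stock; many hits fall short of the cut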
UCH37 inh: inhibitors of human UCH37 deubiquitinase, primary screen, biochemical, Ub-AMC cleavage, fluorescence; purified proteasome/UCH37; AID 588478, 2011; 330,000 tested, 0.33% active; Ubiquitin carboxyl-terminal hydrolase isozyme L5 (Homo sapiens), Q9Y5K5; inhibition, % (concentration not given with the values);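 active = mean of two replicates above 20%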;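 note: 0% = compound-free wells with enzyme and 100% = wells lacking proteasome; stock transfer was 100 nL into about 20 µL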
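Schedule: 30 min plus 25 min, room temperature / Material: human UCH37 within purified proteasomes / Technique: AMC fluorescence intensity at 355/460 nm / Buffer or medium: pH 7.4 Tris-HCl (50 mM) with ovalbumin, ATP-MgCl2, DTT / Controls: wells without proteasome as full block, compound-free enzyme plus substrate as uninhibited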
Ecoli growth: E. coli growth inhibition, primary screen, OD600; Escherichia coli growth, 23 h; stronger effect = lower value; OD600 absorbance (concentration not given with the values); 330,000 tested, 0.21% active; AID 1053175, 2014;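 active = OD600 absorbance below the run mean of sample wells minus 3.6 SD, in any replicate, cut at about 0.56 in these data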;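 note: stock transfer was 300 nL into about 60 µL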
Vif A3G: inhibitors of Vif binding to APOBEC3G peptide, primary screen, biochemical, TR-FRET, GST-Vif 1-94, biotin-A3G peptide, dose response retest (AID 1117319); one-dose inhibition, %; IC50 in µM for titrated hits; 260,000 tested, 0.57% active; TR-FRET GST-Vif / biotin-A3G peptide binding; higher % means a stronger effect; test concentration not given here; strong numbers were not always called active;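 active = above the screen mean plus three standard deviations and confirmed in dose response; inconclusive = results disagree or hit not tested in dose response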;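 note: Vif residues 1-94 fused to GST binding biotinylated APOBEC3G peptide 110-148; 0% = full assay without inhibitor and 100% = GST in place of GST-Vif; retest series ran down from 100 µM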
LANA-H2B inh: blockers of LANA interaction with H2A/H2B – biochemical, FP readout, HTS, primary screen; Protein LANA1 (Human herpesvirus 8 type P (isolate GK18)), Q9QR71; cell-free LANA-H2A/H2B peptide, fluorescence polarization; inhibition, % (concentration not given with the values); 320,000 tested, 0.6% active; AID 2629, 2010; in the data active = inhibition mostly above about 10%, no sharp cut-off; inactive = mostly below about 6.7%;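 note: stock transfer was 7.5 nL into about 10 µL; 0% = median of vehicle wells and 100% = median of positive control wells; one replicate is shown; the record names a cut of 25% in any replicate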
Target sequence (Q9QR71 whole entry, looked up): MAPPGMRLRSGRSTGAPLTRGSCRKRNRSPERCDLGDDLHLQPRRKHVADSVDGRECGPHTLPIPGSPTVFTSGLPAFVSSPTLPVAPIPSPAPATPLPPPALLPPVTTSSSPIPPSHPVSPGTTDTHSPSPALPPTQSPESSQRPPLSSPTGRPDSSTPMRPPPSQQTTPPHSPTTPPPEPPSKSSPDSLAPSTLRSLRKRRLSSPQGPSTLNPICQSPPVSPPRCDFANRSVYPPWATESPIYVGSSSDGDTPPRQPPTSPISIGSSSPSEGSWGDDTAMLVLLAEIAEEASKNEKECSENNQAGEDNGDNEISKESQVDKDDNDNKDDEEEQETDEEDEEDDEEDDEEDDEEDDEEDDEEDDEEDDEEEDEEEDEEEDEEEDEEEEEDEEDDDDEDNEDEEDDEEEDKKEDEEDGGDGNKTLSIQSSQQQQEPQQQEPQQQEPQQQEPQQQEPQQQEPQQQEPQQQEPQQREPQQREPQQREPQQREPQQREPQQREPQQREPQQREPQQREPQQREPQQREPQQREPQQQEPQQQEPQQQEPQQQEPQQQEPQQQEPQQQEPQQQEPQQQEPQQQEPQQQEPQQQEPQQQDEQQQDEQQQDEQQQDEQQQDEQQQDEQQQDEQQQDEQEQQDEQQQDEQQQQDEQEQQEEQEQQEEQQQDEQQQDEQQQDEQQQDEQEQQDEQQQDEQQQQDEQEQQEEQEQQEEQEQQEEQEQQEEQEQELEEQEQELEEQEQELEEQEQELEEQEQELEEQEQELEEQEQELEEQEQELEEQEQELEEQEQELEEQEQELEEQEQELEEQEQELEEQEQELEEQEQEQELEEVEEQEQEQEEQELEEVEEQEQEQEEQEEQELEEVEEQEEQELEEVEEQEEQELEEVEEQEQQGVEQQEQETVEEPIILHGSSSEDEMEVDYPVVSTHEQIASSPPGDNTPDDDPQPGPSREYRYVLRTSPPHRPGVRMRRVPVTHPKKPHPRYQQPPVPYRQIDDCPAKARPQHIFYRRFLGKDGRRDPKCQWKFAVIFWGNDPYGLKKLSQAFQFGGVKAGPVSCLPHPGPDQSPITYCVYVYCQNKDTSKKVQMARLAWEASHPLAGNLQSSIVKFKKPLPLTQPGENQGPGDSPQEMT
An asterisk follows results filed as active; u = inconclusive; x = no result given; & = joins results of further samples.

SMILES	HNF4A DNA FP	B2AR ag	Bfl-1 A1 inh	UCH37 inh	Ecoli growth	Vif A3G	LANA-H2B inh
Cc1cc(C)c(S(=O)(=O)Nc2cccc(S(=O)(=O)N3CCOCC3)c2)c(C)c1	1.0	-2	0.4	4.6	0.72	x	-1.4
Cc1c(C(=O)N2CCCCC2)sc(N)c1C#N	1.3	-7	0.3	-2.6	0.73	-3%	6.4
COc1ccc(NS(=O)(=O)c2ccc(NC(=S)NC(=O)CC(C)C)cc2)cc1	-1.1	0	-0.5	5.0	0.68	27%	-7.7
COC(=O)CN1C(=O)Nc2ccc(Cl)cc2C1c1ccccc1 (stereo not drawn)	0.8	0	-0.3	3.3	0.7	7%	-2.5
COCCNC(=O)C(c1ccc(O)cc1)N(Cc1ccco1)C(=O)CCC(=O)Nc1nccs1 (stereo not drawn)	0.2	-6	0.6	5.1	0.68	13%&-4%	-0.8
O=C1CN(c2nc(-c3cccnc3)nc3scc(-c4ccccc4)c23)CCN1	-2.8	0	-0.8	2.0	0.72	x	0.1
COc1ccc(CCNC(=S)N2CCN(S(=O)(=O)c3ccccc3F)CC2)cc1	-1.1	5	0.7	6.5	0.68	x	-4.7
COC(=O)c1ccc(Cn2nnc3c(=O)[nH]c(C4CCCN(S(=O)(=O)c5ccccc5Cl)C4)nc32)cc1 (stereo not drawn)	-0.2	25	1.1	0.5	0.69	-11%	2.5
Cc1cccc2cc(C#N)c(SCCN3CCCCC3)nc12	x	x	1.5	1.5	0.65	x	-4.3
CC(SC#N)C(=O)C12CC3CC(CC(C3)C1)C2 (stereo not drawn)	0.1	9	0.4	2.9	0.72	5%	3.9
Cc1ccc(C)c(S(=O)(=O)NCC(c2ccco2)N2CCc3ccccc3C2)c1 (stereo not drawn)	-2.5	5	-0.3	1.4	0.62	-2%	9.8
COCCn1nnnc1C(c1cccc(C#N)c1)N1CCCCCC1 (stereo not drawn)	0.4	-1	0.3	5.1	0.69	u	-10
COc1ccc(-n2c(Cc3cc(=O)[nH]c(=O)[nH]3)nnc2SCC(=O)N2CCCC2)cc1	-2.0	1	0.4	2.4	0.73	0%	5.9
COc1ccc(CNC(=O)C2CCN(S(=O)(=O)N3CCCC3)CC2)cc1	-1.6	4	-0.7	-1.3	0.7	-5%	-1.5
O=C(CNC(=O)c1ccc(-c2ccccc2)cc1)OCc1c(Cl)cccc1Cl	0.6	-2	0.1	5.6	0.71	-8%	-1.1
Cc1ccc(/C=C/C(=O)Nc2nnc(C)s2)o1	-1.8	3	0.4	-8.3	0.68	30%	0.1
CCOC(=O)c1c(C)[nH]c(C)c1S(=O)(=O)NCCc1cccs1	5.3	-4	0.4	1.1	0.71	x	-7.4
COc1ccc(S(=O)(=O)Cc2ccc(C(=O)O)o2)cc1	-1.1	-3	-0.4	1.9	0.66	-9%	1.3
COc1ccc(NC(=O)CN(CC(=O)Nc2ccc(OC)cc2)C(C)(C)CO)cc1	3.5	-1	0.4	4.4	0.69	2%	-6.1
OC1CCCCC1Sc1nc2ccccc2s1 (stereo not drawn)	-2.1	-9	-1.1	4.5	0.67	11%	-6.9
CN(C)S(=O)(=O)c1cccc(NC(=O)c2c[nH]c3ccccc23)c1	5.3	11	0.1	-2.4	0.7	x	-1.0
Cc1cc(C)cc(C(=O)NCC(=O)N2CCC(C(N)=O)CC2)c1	3.2	-4	0.8	-2.1	0.65	x	-4.3
O=C(OCCOCCOC(=O)Oc1ccccc1)Oc1ccccc1	-3.4	-2	x	-1.7	0.71	1%	x
COc1ccc(C2=NN(C(N)=S)C(c3ccccc3)C2)cc1 (stereo not drawn)	-1.1	-7	0.4	0.8	0.68	x	7.8
Cc1ccc(/C=N/Nc2ccc(F)cc2F)s1	2.7	5	0.7	x	x	4%	-1.1
COc1cc(/C=C/C(=O)OCC(=O)c2ccc[nH]2)cc(OC)c1OC	3.4	-2	0.1	-4.3	0.73	7%	-0.8
Cn1c(CC(=O)NNC(=O)c2ccc(F)cc2Cl)nc2ccccc21	5.8	-3	0.1	4.2	0.7	10%	-0.4
O=C(c1ccco1)N1CCN(C23CC4CC(CC(C4)C2)C3)CC1	2.5	-7	-0.6	0.7	0.69	x	-0.3
Cc1cccc(N2CC(C(=O)O)CC2=O)c1 (stereo not drawn)	-2.2	-4	0.1	0.9	0.72	-2%	3.8
CC(OC(=O)c1ccc(NC(=O)CC#N)cc1)C(=O)NC(=O)NC1CCCCC1 (stereo not drawn)	-1.6	13	0.0	-2.5	0.71	5%	-3.3
N#C/C=C(/N)N1CCN(c2ccc(Cl)c(Cl)c2)CC1	-0.9	0	1.6	5.0	0.73	-12%	3.0
Cn1c(=O)c2c(ncn2Cc2cc(-c3ccccc3)no2)n(C)c1=O	-0.2	-4	0.0	-1.3	0.73	-2%	-3.4
O=C(OCC(=O)N1CCOCC1)c1cc(=O)[nH]c2ccccc12	-1.9	-2	-1.3	-45	0.69	-2%	-0.8
Cn1[nH]c(=O)c2ccccc2c1=O	-4.1	3	0.6	-0.7	0.69	2%	-0.8
O=C(Cn1cnc2cc([N+](=O)[O-])ccc2c1=O)NC1CCS(=O)(=O)C1 (stereo not drawn)	1.2	-4	0.4	1.4	0.62	10%	-9.2
Cc1cc(C)nc(NC(=O)c2cc([N+](=O)[O-])cc([N+](=O)[O-])c2)n1	1.0	6	0.4	0.9	0.71	10%	1.2

Entries of single compounds, quoted from the list:
Results for N#C/C=C(/N)N1CCN(c2ccc(Cl)c(Cl)c2)CC1 = HNF4A DNA FP: -0.9; B2AR ag: 0; Bfl-1 A1 inh: 1.6; UCH37 inh: 5.0; Ecoli growth: 0.73; Vif A3G: -12%; LANA-H2B inh: 3.0
Results for Cc1cccc(N2CC(C(=O)O)CC2=O)c1 (stereo not drawn) = HNF4A DNA FP: -2.2; B2AR ag: -4; Bfl-1 A1 inh: 0.1; UCH37 inh: 0.9; Ecoli growth: 0.72; Vif A3G: -2%; LANA-H2B inh: 3.8

The results go on.
SMILES	HNF4A DNA FP	B2AR ag	Bfl-1 A1 inh	UCH37 inh	Ecoli growth	Vif A3G	LANA-H2B inh
C/C(N)=C(/C#N)C(=O)CSc1nc2ccccc2c(=O)n1CCCOC(C)C	-5.3	-11	-0.1	2.1	0.7	x	2.3
Nc1c(S(=O)(=O)c2ccccc2)c2nc3ccccc3nc2n1CCN1CCOCC1	6.2	-2	-0.8	-217	0.73	x	6.9
COCCCNC(=O)/C=C/c1ccc(OCc2c(F)cccc2Cl)cc1	2.0	-8	1.3	1.2	0.55	-8%	6.3
CN(C)/C=C1\C(=O)N(c2ccc(F)cc2F)C(c2cccnc2)S1(=O)=O (stereo not drawn)	1.9	-3	0.0	1.1	0.65	-11%	0.8
COc1ccc(C(=O)Nc2nnc(S(=O)(=O)N3CCOCC3)s2)cc1	4.7	3	0.6	5.6	0.69	-2%	-5.3
COc1ccc(C)cc1NC(=O)c1ccc(OCc2c(C)noc2C)cc1	2.2	28	0.6	-6.4	0.68	-9%	-0.2
O=C(CCSCc1ccc(Cl)cc1)NCCC1=CCCCC1	8.8	-11	0.2	1.7	0.68	-5%	-1.3
COc1ccc(-n2c3c(cc(C(=O)N4CCCCC4)c2=O)C(=O)CC(C)(C)C3)cc1	2.4	2	-0.1	-1.0	0.75	2%	-1.1
COc1ccc(-c2nc(CS(=O)CC(=O)NC(C)CCc3ccccc3)c(C)o2)cc1OC (stereo not drawn)	-0.8	-4	-0.3	3.5	0.73	x	-0.6
O=C(C[N+]12CC[N+](CC(=O)c3ccc(F)cc3)(CC1)CC2)c1ccc(F)cc1	-2.0	-4	0.6	1.0	0.64	-5%	1.0
CSc1nc2nc3c(c(=O)n2[nH]1)CCC3	0.1	0	2.1	0.8	0.66	15%	6.7
COCCNC(=O)Cn1c(=O)n(C)c2ccccc21	-0.4	-3	1.3	3.8	0.66	10%	5.1
O=C(O)c1cccc(-n2sc3ccccc3c2=O)c1	4.1	-1	-8.6	-1.2	x	x	2.2
CCCCNC(=O)c1ccc(CNc2c(N3CCC(C(=O)OCC)CC3)c(=O)c2=O)cc1	-1.4&-1.4	4&0	-0.6	1.4	0.64	-1%&31%	4.3
CCN(CC)S(=O)(=O)c1cccc(C(=O)N/N=C/c2ccc(O)c(O)c2O)c1	2.6	22	1.1	x	x	3.5µM*	2.5
CCCNC(=O)N1CCN(Cc2ccco2)CC1	-0.6	0	0.7	-1.9	0.7	x	0.6
C[C@H](NC(=O)c1nc[nH]c1C(=O)N1CCN(c2ccccc2)CC1)C(=O)OCc1ccccc1	-4.5	3	-0.2	2.4	x	x	6.5
COC(=O)CC1Oc2ccc(C)cc2NC1=O (stereo not drawn)	-1.8	5	0.8	3.2	0.72	-1%	-0.4
COc1cccc(SCc2noc(C(=O)NC(C)C)c2C(=O)NC(C)C)c1	5.0	-6	-0.6	-1.0	0.72	x	-3.1
O=C(NC(=S)NCc1cccnc1)c1cc(Br)ccc1Cl	2.8	-7	-1.0	0.4	0.7	0%	-0.2
COc1ccc2cc(C(c3nnnn3C(C)(C)C)N3CCSCC3)c(=O)[nH]c2c1 (stereo not drawn)	1.4	-3	0.3	1.3	0.69	2%	1.4
O=C(Nc1ccccc1)c1cnc2n(c1=O)CCS2	1.4	6	-1.6	6.2	0.71	-3%	-3.5
CCOc1ccc2c(c1)[N+](C)(C)C(C)(C)C=C2C	4.3	-6	-0.3	-4.8	0.67	-1%	-2.3
COc1ccccc1NC(=O)C(C)OC(=O)CC1CCCC1 (stereo not drawn)	7.0	2	0.0	3.1	0.71	x	-3.0
CCOC(=O)C1=C(C)Nc2nc(SC)nn2C1c1ccc(C(=O)OC)cc1 (stereo not drawn)	0.7	7	-0.2	-16	0.72	12%	0.0
COc1cc(C(=O)Nc2cccc(-c3nnc(-c4ccco4)o3)c2)ccc1OC(C)=O	1.3	7	-0.6	0.0	0.67	7%	-12
COc1ccc(CNC(=O)C2CCN(C(=O)c3ccc(F)cc3)CC2)cc1OC	1.2	-1	0.8	0.3	0.69	x	3.8
Cc1ccc(CNc2ccc(N3C(=O)CCCC3=O)cc2[N+](=O)[O-])cc1	-0.8	-4	-0.5	1.7	0.64	x	-2.4
Cc1cc(C(=O)N2CCOCC2)n(-c2ccccc2)n1	-1.6	9	0.4	5.7	0.72	9%	-5.0
Cc1ccsc1/C=N/NC(=O)C1CC(=O)N(c2ccc(F)cc2)C1 (stereo not drawn)	1.3	2	0.5	x	x	16%	-2.5
COc1cc(C2c3cc(O)c(OC)cc3CC(C(=O)O)C2CO)ccc1O (stereo not drawn)	2.0	-12	x	2.5	0.7	-2%	x
COc1cc(OC)cc(C(=O)N/N=C\c2ccoc2)c1	-0.3	2	-0.2	x	x	13%	-2.4
O=C(Cc1ccccc1)N/N=C/c1ccccc1Cl	0.0	-4	0.6	x	x	0%	-2.7
O=C(Nc1ccccc1)N1CCNCC1	0.6	-2	0.1	3.3	0.73	u	-2.3
COC(=O)C1=C(Nc2ccccc2NS(=O)(=O)c2ccc(C(F)(F)F)cc2Cl)CSC1	1.1	-1	0.5	4.1	0.66	-4%	1.2
Nc1cccc(S(=O)(=O)NC2=NCCC2)c1	4.9	6	-0.2	-1.1	0.73	-1%	-6.3

High-throughput results as filed in PubChem.
